High-throughput results deposited in PubChem by several laboratories.
HSV replic up = increases HSV replication in cells; HSV replication augmentation in cells, fold increase; 220,000 tested, 0.005% active; maximum fold increase;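 active means peak rise of 1.5-fold or more in the series; tested in PC3 cells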;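 further: first round at 10 µM; read as green reporter fluorescence; hits show the peak of a series up to 25 µM; 1 = signal of infected wells without compound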
PKD1 kinase inh = blocks activity of human protein kinase D1; Q15139; PKD1 kinase fluorescence polarization assay; inhibition, %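 (about 10 µM by stock and volumes)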; 200,000 tested, 0.056% active; AID 797;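 active means inhibition of 50% or more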;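 further: controls were vehicle for no effect and a reference inhibitor for full effect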
RGS16-Gao HTS = regulators of human RGS16-Galphao interaction | bead-based flow cytometry RGS16-Galphao binding, fluorescence; actives lie on both sides | AID 1441 | binding response (% of control), % at 10 µM | 220,000 tested, 0.38% active | O15492+P09471;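 active means below 25% or above 175%, edge rows of some plates excepted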;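 further: Galphao activated by GDP with aluminum fluoride before binding; 100% = wells without compound and 0% = beads without RGS; some results beyond the cut were filed as inactive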
Target sequence (O15492 whole entry, looked up): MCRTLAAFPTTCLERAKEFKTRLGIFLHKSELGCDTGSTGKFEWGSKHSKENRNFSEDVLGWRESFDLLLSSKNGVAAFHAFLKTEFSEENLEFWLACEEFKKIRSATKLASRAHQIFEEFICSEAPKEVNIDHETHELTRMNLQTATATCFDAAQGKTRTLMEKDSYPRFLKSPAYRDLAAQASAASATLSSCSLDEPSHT
Target sequence (P09471 whole entry, looked up): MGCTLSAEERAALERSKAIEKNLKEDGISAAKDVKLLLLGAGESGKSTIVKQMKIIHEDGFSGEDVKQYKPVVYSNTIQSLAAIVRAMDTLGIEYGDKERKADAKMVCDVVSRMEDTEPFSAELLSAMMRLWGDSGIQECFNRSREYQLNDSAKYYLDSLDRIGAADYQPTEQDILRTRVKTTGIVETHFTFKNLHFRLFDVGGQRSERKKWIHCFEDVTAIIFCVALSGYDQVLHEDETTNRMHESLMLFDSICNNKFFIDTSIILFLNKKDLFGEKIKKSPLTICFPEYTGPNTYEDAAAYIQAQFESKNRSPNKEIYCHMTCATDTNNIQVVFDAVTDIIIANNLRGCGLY
GALR2 agonist = activates the human galanin receptor 2. O43603. GALR2-expressing cells, agonist activation read-out. activation, %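 (tested at 5 µM)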. 140,000 tested, 0.48% active. AID 803;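 active means above mean plus 3 SD of all compounds, about 5% in these data, not always enough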;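 further: 0% = vehicle buffer wells and 100% = reference agonist at full effect; tested in CHO reporter cells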
Target sequence (O43603 whole entry, looked up): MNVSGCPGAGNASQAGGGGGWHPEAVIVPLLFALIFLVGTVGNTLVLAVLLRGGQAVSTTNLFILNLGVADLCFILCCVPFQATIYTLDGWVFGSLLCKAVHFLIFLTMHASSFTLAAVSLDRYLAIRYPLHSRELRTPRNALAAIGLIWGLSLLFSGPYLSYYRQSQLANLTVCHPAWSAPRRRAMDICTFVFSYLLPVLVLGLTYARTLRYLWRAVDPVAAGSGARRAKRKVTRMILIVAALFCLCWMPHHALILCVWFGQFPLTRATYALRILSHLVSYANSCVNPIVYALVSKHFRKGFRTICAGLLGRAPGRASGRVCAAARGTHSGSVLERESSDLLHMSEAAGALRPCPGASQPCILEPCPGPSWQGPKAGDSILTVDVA
INS promoter inh = TRM-6 insulin promoter activity inhibition. TRM-6 cells (human fetal islet line), insulin promoter-eGFP reporter, imaging; reporter expression induced with tamoxifen. inhibition, % at 2 µM. 130,000 tested, 0.9% active;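 active means inhibition above the mean plus 3 SD, with well images judged a real hit on visual review, cut at about 60% in these data, passing the limit was not always enough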
INS promoter inh cell count = also measured in INS promoter inh; calls as there; normalized cell count, %; measured here: cell count, toxicity; reference of the scale not given here;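 cells exposed to compound for 48 h; stained nuclei by imaging scaled within each plate; lower means fewer cells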
HSV replic up primary fold = recorded beside HSV replic up, whose call it bears; fold increase; compound at 10 µM; measured here: primary screen fold increase 10 uM; tested in PC3 cells;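 GFP signal in the first replicate; 1 = infected wells without compound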
Active calls of the source: *; i = inactive; / = no result given.

SMILES	HSV replic up	HSV replic up primary fold	PKD1 kinase inh	RGS16-Gao HTS	GALR2 agonist	INS promoter inh	INS promoter inh cell count
CCN(CC)S(=O)(=O)N1CCC(C(=O)NCC2COc3ccccc3O2)CC1 (stereo not given)	i	0.99	3	158	-0.3	23	137
Cc1cc(N)n(-c2nc3ccccc3s2)n1	i	0.97	-2	109	/	63	146
Cc1ccc(CSCc2ccc(C(=O)NCC3CCCO3)o2)cc1 (stereo not given)	i	1	-5	95	/	-17	128
CCOC(=O)C1=C(C)NC(C)=C(C(=O)OCC)C1/C=C/c1ccccc1	i	1	2	169	0.2	38	116
O=C(COCC(=O)N/N=C/c1ccccc1F)N/N=C/c1ccccc1F	i	0.97	11	92	-1.0	/	/
CN(C)N1C(=O)CC(N2CCCCC2)C1=O (stereo not given)	i	0.72	-3	99	/	19	108
O=C(Nc1ccc(N2CCN(Cc3ccccc3Cl)CC2)cc1)c1cccnc1	i	0.75	-6	104	-1.6	-37	106
C/C(=N/NC(=O)c1cccs1)c1ccc(NC(=O)COc2ccc(Cl)cc2Cl)cc1	i	0.57	9	88	-3.4	/	/
NC(=O)C1(NC(=O)[C@@H]2CC3(CC(c4cccc(NC(=O)c5cc([N+](=O)[O-])cc([N+](=O)[O-])c5)c4)=NO3)CN2C(=O)c2ccccc2)CC1 (stereo not given in full)	i	0.99	0	100	-2.5	0	43
COc1ccc(Cc2nn3c(-c4ccccc4Br)nnc3s2)cc1	i	0.89	-1	59	-4.0	-3	129
Cc1nn(C)cc1CN1CCC(CO)(CCOc2ccccc2)CC1	i	0.96	6	101	/	/	/
C=CCn1c(-c2cccc(OC)c2)n[nH]c1=S	i	0.92	0	100	0.6	26	135
Cc1cc(NC(=O)C2CC(c3cccc(Br)c3)=NO2)no1 (stereo not given)	i	1.1	-4	99	-2.9	-25	101
CCOC(=O)C1=NN(c2ccccc2)C(c2ccccc2)CC1=O (stereo not given)	i	0.94	-10	105	-2.8	-61	94
COc1ccc(-c2nnc(SCC3CCCO3)n2C)cc1 (stereo not given)	i	0.95	0	104	/	-31	125

Fetched one by one from the list above:
SMILES	HSV replic up	HSV replic up primary fold	PKD1 kinase inh	RGS16-Gao HTS	GALR2 agonist	INS promoter inh	INS promoter inh cell count
COc1ccc(-c2nnc(SCC3CCCO3)n2C)cc1 (stereo not given)	i	0.95	0	104	/	-31	125
Cc1cc(N)n(-c2nc3ccccc3s2)n1	i	0.97	-2	109	/	63	146
O=C(Nc1ccc(N2CCN(Cc3ccccc3Cl)CC2)cc1)c1cccnc1	i	0.75	-6	104	-1.6	-37	106
O=C(COCC(=O)N/N=C/c1ccccc1F)N/N=C/c1ccccc1F	i	0.97	11	92	-1.0	/	/
COc1ccc(Cc2nn3c(-c4ccccc4Br)nnc3s2)cc1	i	0.89	-1	59	-4.0	-3	129

The list goes on.
SMILES	HSV replic up	HSV replic up primary fold	PKD1 kinase inh	RGS16-Gao HTS	GALR2 agonist	INS promoter inh	INS promoter inh cell count
CCCc1nc2oc3c(NCCOCCO)ncnc3c2c2c1COC(C)(C)C2	i	0.93	-7	162	-0.9	/	/
O=C(NCCC1=CCCCC1)C1CCN(S(=O)(=O)c2ccccc2)CC1	i	0.98	4	103	/	/	/
COc1ccc(-c2nn(CCC#N)cc2/C=N/O)cc1	i	0.93	0	112	/	45	158
CC(C)C(NS(=O)(=O)c1cccs1)C(=O)N1CCc2ccccc2C1 (stereo not given)	i	0.94	-5	105	-0.2	-24	109
CC(=O)CCc1ccc2oc(C(=O)O)c(C)c2c1	i	0.96	-1	106	-2.4	/	/
O=C(NC1CCCCCC1)c1cccs1	i	0.89	-1	105	-2.9	-22	104
Cc1[nH]n(-c2ccccc2)c(=O)c1C=NCCc1ccccc1	i	0.95	-3	103	/	-10	104
CC(=O)CSc1nc(-c2cccs2)c(C#N)c(=O)[nH]1	i	1.1	-7	100	/	/	/
CN1CCN(c2nc(N3CCN(c4ccccc4)CC3)ncc2F)CC1	i	0.91	-4	93	1.2	5	86
COc1ccc(C(=O)N/N=C2\SCC(=O)N2Cc2ccc3c(c2)OCO3)c(OC)c1	i	0.83	5	105	0.3	27	111
Cc1ccc(N=c2c([N+](=O)[O-])nn(-c3ccccc3)n2O)c(C)c1	i	0.86	-5	97	-2.3	14	66
O=C(NC1CCS(=O)(=O)C1)/C(=C/c1ccco1)NC(=O)c1ccccc1 (stereo not given)	i	1.1	-4	96	/	/	/
CCN1C/C(=C/c2ccc(OC)c(O)c2)C(=O)/C(=C/c2ccc(OC)c(O)c2)C1	i	0.56	-2	96	/	/	/
CCOC(=O)c1c(NC(=O)c2ccc(N3C(=O)[C@@H]4[C@H](C3=O)[C@H]3C=C[C@@H]4C3)cc2)sc2c1CCCC2	i	1.1	-2	102	0.4	14	133
CCCOc1ccc(-c2nnc(-c3ccco3)o2)cc1	i	0.68	-12	69	-3.0	/	/
O=C(CSc1nnc(C2CC2)n1Cc1ccccc1)c1ccc(S(=O)(=O)N2CCOCC2)cc1	i	1.1	-11	-32	-1.8	58	71
O=C1c2ccccc2C(=O)N1CCCCCc1nc(-c2ccccc2)no1	i	0.83	0	94	-1.6	5	103
CCC1CCCCN1C(=O)c1sc2nc(C)nc(N(CC)CC)c2c1C (stereo not given)	i	0.91	1	100	/	14	48
Cc1cc(C)n2nc3ccccc3c2n1	i	0.99	-11	103	-3.3	/	/
COc1ccc(C(=O)NCCc2cc3c(OC)ccc(OC)c3[nH]c2=O)cc1OC	i	1	-7	99	/	-45	126
C=C1N(CCCCCC(=O)O)C(=O)OC12CCCCC2	i	0.63	-9	104	-0.9	/	/
COc1ccc(Cc2noc(CN(C)CC3(N4CCOCC4)CCCCC3)n2)cc1OC	i	0.94	0	100	/	/	/
CCCCC(=O)Nc1ccc(NC(=O)c2ccccc2[N+](=O)[O-])cc1OC	i	0.95	-9	104	-1.2	21	57
O=C(NCCc1ccccn1)c1cc(-c2cccc3ccccc23)nc2ccccc12	i	0.92	5	97	0.8	/	/
Cc1cc2ncc(C(=O)Nc3ccsc3C(=O)O)c(C)n2n1	i	0.99	0	101	/	-7	91
CN(C)CCCNc1oc(-c2ccccc2)nc1C#N	i	1.1	0	101	-1.9	-16	127
CCCS(=O)(=O)N1CCc2cc(OC)c(OC)cc2C1	i	0.85	0	99	-2.9	/	/
CC(C)(C)c1cc(C(=O)N2CCc3ccccc32)ccn1	i	1.1	-4	101	-0.8	/	/
O=C(Cc1ccccc1)N/N=C/c1ccc(S(=O)(=O)O)o1	i	0.85	/	102	/	/	/
Cc1cccc2nc(CSc3ccccc3C(=O)O)cn12	i	1	-2	106	-0.4	/	/
CCc1ccc(C(=O)NC(=S)Nc2ccc3c(c2)OCCO3)cc1	i	0.97	-5	106	-0.7	/	/
O=C(NC1CCCC1)c1ccc2nc(-c3ccco3)c(-c3ccco3)nc2c1	/	/	-4	85	-0.9	/	/
CC(C)CCn1c(=O)c(C(=O)N/N=C/c2cccc(F)c2)c(O)c2ccccc21	/	/	-22	100	-1.6	/	/
COc1cc(NC(=O)CN2c3ccccc3CC2C)cc(OC)c1OC (stereo not given)	/	/	-5	108	-1.0	-43	94
CCOC(=O)C(=CNCC(=O)O)C(=O)OCC	i	0.78	-1	108	-2.0	-20	110
O=C(NCc1ccccc1)c1ccc(Cn2cc(C(F)(F)F)ccc2=O)cc1	i	0.68	0	103	-0.5	-36	103
CC(NC(=S)NCCc1ccccc1)C(c1cccs1)N1CCN(C)CC1 (stereo not given)	i	0.89	-1	122	-2.0	-17	71
C[C@H]1C[C@@H]2[C@H]([C@@H](O)C[C@@]3(C)[C@H]2CC[C@]3(O)C(=O)CO)[C@@]2(C)C=CC(=O)C=C12	i	0.77	-9	/	0.2	-65	44
CCOC(=O)c1ccc2ncc(C(=O)OCC)c(NCc3ccco3)c2c1	i	1.1	16	104	-0.8	/	/
COC(=O)C1=C(COc2ccccc2)NC(=O)NC1c1ccc(Br)cc1 (stereo not given)	i	0.79	-8	101	-2.9	36	74
O=C(COc1ccccc1)N1CCN=C1SCc1ccc(F)cc1	i	0.92	/	99	/	/	/
Cn1c(=O)c2c(nc(N3CCc4ccccc4C3)n2Cc2ccccc2F)n(C)c1=O	i	0.62	1	102	-1.4	0	122
COc1cc2c3c(c1OC)C1(C=CC(=O)C=C1)CC3N(C(=O)CCC(=O)O)CC2 (stereo not given)	i	0.98	/	97	/	/	/
O=C(CCNC(=O)c1ccccc1Cl)Nc1nccs1	i	0.97	0	96	/	/	/
COc1cc(CN2CCN(C(=O)c3ccc(-c4ccccc4)cc3)CC2)cc(OC)c1OC	i	0.97	6	127	/	-62	171

Rewritten as comma-separated lines: entries from further up.
mol,HSV replic up,HSV replic up primary fold,PKD1 kinase inh,RGS16-Gao HTS,GALR2 agonist,INS promoter inh,INS promoter inh cell count
CC(C)CCn1c(=O)c(C(=O)N/N=C/c2cccc(F)c2)c(O)c2ccccc21,/,/,-22,100,-1.6,/,/
COc1cc(NC(=O)CN2c3ccccc3CC2C)cc(OC)c1OC (stereo not given),/,/,-5,108,-1.0,-43,94

(more compounds)
SMILES	HSV replic up	HSV replic up primary fold	PKD1 kinase inh	RGS16-Gao HTS	GALR2 agonist	INS promoter inh	INS promoter inh cell count
O=C(NC1=NCCS1)C1COc2ccccc2O1 (stereo not given)	i	0.95	4	101	-0.9	21	118
CC1CC(C)CN(C(=O)c2ccc(CSc3nc4ccncc4[nH]3)cc2)C1 (stereo not given)	/	/	-9	86	-1.5	-46	146
CCNC(=O)CN(Cc1ccccc1)S(=O)(=O)c1ccccc1	i	0.96	-18	99	-0.9	/	/
NC(=O)c1ccc(-n2nnnc2Oc2ccccc2C(=O)N2CCOCC2)cc1	i	0.89	3	94	2.8	43	55
Cc1ccc(CSc2nnc(-c3ccccn3)n2C)cc1	i	0.81	-1	102	-1.2	-50	219
CCn1c(CNC(=O)Cc2ccc(OC)cc2)nnc1SCC(=O)Nc1ccc(C(=O)O)cc1	i	1.1	-1	99	/	/	/
COc1ccc(CCNC(=O)COC(=O)Cc2cc(OC)c(OC)c(OC)c2)cc1	i	1	-3	100	/	/	/
O=C1CCC(=O)N1N1C(=O)C2C3c4ccccc4C(c4ccccc43)C2C1=O (stereo not given)	i	1	-5	98	/	/	/
COc1ccc(Nc2ccc(N3C(=O)CCCC3=O)cc2[N+](=O)[O-])cc1OC	i	0.96	-15	111	-1.1	40	119

Complete entries, looked up by structure.
COc1ccc(Nc2ccc(N3C(=O)CCCC3=O)cc2[N+](=O)[O-])cc1OC is entered as HSV replic up: i; HSV replic up primary fold: 0.96; PKD1 kinase inh: -15; RGS16-Gao HTS: 111; GALR2 agonist: -1.1; INS promoter inh: 40; INS promoter inh cell count: 119
CCn1c(CNC(=O)Cc2ccc(OC)cc2)nnc1SCC(=O)Nc1ccc(C(=O)O)cc1 is entered as HSV replic up: i; HSV replic up primary fold: 1.1; PKD1 kinase inh: -1; RGS16-Gao HTS: 99; GALR2 agonist: /; INS promoter inh: /; INS promoter inh cell count: /
COc1ccc(CCNC(=O)COC(=O)Cc2cc(OC)c(OC)c(OC)c2)cc1 is entered as HSV replic up: i; HSV replic up primary fold: 1; PKD1 kinase inh: -3; RGS16-Gao HTS: 100; GALR2 agonist: /; INS promoter inh: /; INS promoter inh cell count: /
